Source: PubChem (several laboratories)
Rce1 inh – yeast Rce1p protease inhibitors, primary screen, biochemical, fluorescence, cell-free homogeneous; yeast membranes, quenched prenylated peptide cleavage fluorescence; AID 2563, 2010; calls only; CAAX prenyl protease 2 (Saccharomyces cerevisiae (strain ATCC 204508 / S288c)), Q03530; actives 0.27% (n = 290,000);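 active = fall in fluorescence gain of 50% or more versus controls, with final raw signal at or below 3038400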;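 note: plate controls were neutral control wells for no effect and wells lacking membranes for full effect; tested at 10 µM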
Target sequence (Q03530 whole entry, looked up): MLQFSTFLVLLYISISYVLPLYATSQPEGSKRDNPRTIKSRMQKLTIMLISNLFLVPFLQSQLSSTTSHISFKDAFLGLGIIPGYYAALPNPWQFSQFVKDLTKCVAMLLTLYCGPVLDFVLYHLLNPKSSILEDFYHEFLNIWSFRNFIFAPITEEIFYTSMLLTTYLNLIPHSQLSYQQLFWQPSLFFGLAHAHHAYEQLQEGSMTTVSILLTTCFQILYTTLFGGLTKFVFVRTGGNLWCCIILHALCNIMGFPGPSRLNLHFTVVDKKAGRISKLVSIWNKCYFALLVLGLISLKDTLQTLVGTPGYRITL
MT1-MMP act inh – blockers of MT1-MMP proenzyme processing, primary screen, HT1080 RFP-PRO-GFP cells, GFP/RFP fluorescence. actives 0.061% (n = 360,000). GFP/RFP ratio change, % at 20 µM. GFP/RFP ratio fluorescence, overnight; percent of plate control window, DMSO zero. Matrix metalloproteinase-14 (Homo sapiens), P50281;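 active = GFP/RFP ratio change of at least 30% with cell ATP level not reduced by more than half and red fluorescence within 50% of control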; note: strong numbers were not always called active
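Test system: HT1080 RFP-PRO-GFP cells; Benchmarks: DMSO and RFP-L50D-GFP cell wells; Timing: cells overnight before dosing, compound overnight, 37 °C, 5% CO2; Compound: one 20 µM compound dose with 1% DMSO; Read-out: GFP/RFP fluorescence ratio.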
eIF4H inh – human eIF4H binding inhibitors, primary screen, translation initiation inhibitor project, biochemical, uHTS, fluorescence polarization | Eukaryotic translation initiation factor 4H (Homo sapiens), Q15056 | eIF4H fluorescence polarization binding assay | inhibition, % at 35 µM | actives 0.94% (n = 290,000) | AID 2012, 2009;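 active = 50% or more with normal probe brightness, or confirmed in later tests; about a fifth of its hits are not listed in these tables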;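 note: calls also rest on retests at 20 µM and on dose response follow-up; 0% = protein and probe with vehicle and 100% = probe without protein; strong numbers were not always called active; many hits fall short of the cut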
Yeast UUG start – modulators of yeast start codon fidelity, primary screen, whole organism, S. cerevisiae, single point, plate reader. S. cerevisiae UUG-firefly luciferase reporter, luminescence/redox ratio. activity score, % at 18.7 µM. actives 0.13% (n = 350,000);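 active = replicate mean at a twofold rise or more, about +100% in these data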;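 note: firefly luciferase made from a UUG start codon reports start codon fidelity; reporter light over untreated wells divided by growth signal over untreated wells; some hits fall short of that in this replicate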
PABP FP inh – PABP poly(A) RNA binding inhibitors, primary screen, biochemical, fluorescence polarization, uHTS | AID 2014, 2009 | actives 1% (n = 290,000) | inhibition, % at 35 µM | Polyadenylate-binding protein 1 (Homo sapiens), P11940;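 active = 50% or more with normal probe brightness, or confirmed in later tests; about a fifth of its hits are not listed in these tables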;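 note: calls also rest on retests at 20 µM and on dose response follow-up; controls were probe without protein and protein plus probe with vehicle; some compounds called inactive have numbers as strong as hits; many hits fall short of the cut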
CSC inhib – cancer stem cell viability inhibitors, primary screen, luminescence | cancer stem cell-like cells viability | inhibition, % at 7.5 µM | actives 1.1% (n = 300,000) | AID 2717, 2010;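 active = mean at 75% or more and at least half the replicates too; tested in HMLE shEcad cells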;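 note: 0% = median of negative and 100% = median of positive control wells; the first replicate is given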
HIV Env fusion – inhibitors of HIV-1 Env-driven cell-cell fusion, primary screen, HeLa-JRFL effector, CEM21 target cells, luciferase; AID 651610, 2012; actives 1.1% (n = 360,000); inhibition, % at 12.3 µM;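 active = mean replicate inhibition score of at least 50 and every replicate individually at or above 50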;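 note: 0% = plate neutral controls and 100% = maraviroc near 300 nM; one replicate is shown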
eIF4H inh retest – further read-out of eIF4H inh, marked with its call; inhibition, %; compound at 20 µM; confirmation average;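 mean of two retest wells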
PABP FP inh retest – second read-out of PABP FP inh, no call of its own (marks repeat the call); inhibition, %; compound at 20 µM; confirmation repeats;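 mean of two retest wells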
MT1-MMP act inh RFP – also measured in MT1-MMP act inh; calls as there; RFP signal change, %; measured here: RFP expression control read;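 0 = vehicle wells; hits needed this value within 50% of zero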
Starred values were filed as active, the others as inactive; i = inactive; · = no result given. Not a hit list; any-hit rate near 3%.

SMILES	Rce1 inh	MT1-MMP act inh	MT1-MMP act inh RFP	eIF4H inh	Yeast UUG start	PABP FP inh	CSC inhib	HIV Env fusion	others
CCOc1ccc(C2NC(=S)NC3=C2CCc2ccccc23)cc1 (centres undefined)	i	4	-2	2	-43	6	-8	12
CC1CCCN(S(=O)(=O)c2ccc3c(c2)CCN3C(=O)C2CCC2)C1 (centres undefined)	i	-3	-2	6	-7	1	1	24
CNC(=S)N(CCc1c(C)[nH]c2ccc(F)cc12)Cc1cccnc1	i	-1	0	5	-13	-2	2	9
COCCN(C(=O)COC(=O)c1ccccc1Cc1ccccc1)c1c(N)n(Cc2ccccc2)c(=O)[nH]c1=O	i	-3	-5	·	-2	·	22	-1
Cc1ccc(Cn2nc(C)cc2C(=O)Nc2ccccc2Cl)cc1	i	-3	-7	-10	-15	2	·	-34
N#CC(c1ccccc1)N(CCCCl)C(=O)c1ccc(Br)cc1 (centres undefined)	i	-2	-3	1	·	-3	-14	11
COc1cccc2sc(Nc3nc(C)c(C(C)=O)s3)nc12	i	16	-12	-2	-8	-6	18	-123
O=C(NC1CCCC1)c1ccc(CSc2nc3ccncc3n2Cc2ccc(F)cc2)cc1	i	-1	-2	-1	-5	2	14	-3
CN(C)CCNC(=O)c1cccc(-c2cnc3c(NC=O)cc(-c4ccc(S(C)(=O)=O)cc4)cn23)c1	·	-4	2	·	-2	·	·	14
O=C(c1cccc(N2C(=O)C3C4C=CC(C4)C3C2=O)c1)N1CCN(c2ccccc2F)CC1 (centres undefined)	i	1	-1	5	-5	4	-13	1
Cc1nc2ccccc2c2oc(C(=O)Nc3ccc4c(c3)OCCO4)cc12	i	0	-4	-3	-24	10	-5	36
C=CCn1c(SCC(=O)c2c(N)n(C)c(=O)n(C)c2=O)nnc1-c1ccccc1F	i	4	-7	-5	·	-12	-7	0
CCOC(=O)c1ccccc1N/C=C1\CCCCC1=O	i	-2	4	-6	·	1	-10	·
CC(=O)C1=C(O)C(=O)N(CCN(C)C)C1c1ccc(Cl)cc1 (centres undefined)	i	1	1	1	-11	5	·	-49
COc1ccc(-c2noc3c2-c2nc(-c4cccc(C)c4)sc2CC3)cc1	i	-2	0	-2	-19	-2	50	-14
O=C(Nc1ccccc1)c1cccc(N2C(=O)C3C4CC(C(Br)C4Br)C3C2=O)c1 (centres undefined)	·	1	-2	-6	-14	-5	-6	5
CC(C)(C)OC(=O)N1C[C@H](O)C[C@H]1C(=O)OCC(=O)c1ccc([N+](=O)[O-])cc1	i	-2	4	·	11	·	-17	0
Cc1nn(CC(=O)NCc2ccc(Cl)cc2)c(C)c1[N+](=O)[O-]	i	5	2	1	-9	-13	17	·
CCCNC(=O)C(=O)Nc1ccc(N(C)C)cc1	i	2	8	-7	-2	10	-10	·
Cc1ccccc1OCC(=O)Nc1ccccc1-c1ccccc1NC(=O)COc1ccccc1C	i	-8	-9	8	-1	2	65	64*
COC(=O)c1ccc(COc2cccc(C)c2C)cc1	i	3	1	12	·	-10	-10	-8
C#CCOCCOCCOCCNc1nc(N2CCN(C(=O)Cn3cc(CCCN=C(N)N)nn3)CC2)nc(N2CCN(C(=O)[C@H]([C@@H](C)CC)n3cc(CCCCN)nn3)CC2)n1	·	9	1	·	-7	·	-6	-3
O=C(Cc1c[nH]c2ccccc12)Nc1ccc(N2CCOCC2)cc1	i	-1	2	0	·	-8	-12	3
COC(=O)NCC(c1cccnc1)N1CCN(c2ccccc2)CC1 (centres undefined)	i	2	9	-2	-13	-8	-3	23
CCCCc1ccc(S(=O)(=O)N2CCN(C(=O)c3ccco3)CC2)cc1	i	-3	-10	4	-8	9	3	·
CCn1nc(C)cc1C(=O)N1CCCC(CCC(=O)NCc2ccccc2F)C1 (centres undefined)	i	-3	0	4	-39	-6	-4	-20
O=C(CCC(=O)N1CCN(c2ccccc2)CC1)Nc1nnc(C2CCCCC2)s1	i	1	3	11	·	-8	0	1
Cc1ccc(CCNC(=O)c2ccc(CS(=O)(=O)Cc3ccc(F)cc3)o2)cc1	i	-3	-3	-4	-7	14	-9	9
Cc1ccc(NS(=O)(=O)c2cc(C(=O)N3CCOCC3)ccc2C)cc1	i	-3	1	-2	1	-4	-7	·
COc1ccc(NC(=O)CSc2n[nH]c(-c3ccncc3)n2)c([N+](=O)[O-])c1	i	-2	3	-8	-11	-10	-9	-4
C=CCn1c(Cc2cccs2)nnc1SC/C=C/c1ccccc1	i	-1	-2	5	-17	3	29	9
Cc1c(N=Cc2ccc(Br)s2)cccc1[N+](=O)[O-]	i	-1	3	-3	14	-7	-12	-47
CCCNC(=O)C1(C)CCCN(Cc2ccc(C#N)cc2)C1 (centres undefined)	·	3	3	·	-37	·	·	-11
C=CCC1NS(=O)(=O)OC(CCc2ccccc2)C1O (centres undefined)	i	-1	2	6	-14	-3	17	-18
COCCn1c(C)cc(C(=O)Cn2nc(C(=O)O)c3ccccc3c2=O)c1C	i	0	5	-1	·	-12	-13	-68
Cc1cc(C)c(CN2CCN(Cc3ccc(C)o3)C(CCO)C2)c(-n2cccn2)c1 (centres undefined)	i	-3	3	12	·	10	2	5
CSc1ccc(S(=O)(=O)NCCCOC(C)C)cc1	i	0	-3	-8	-18	-3	-13	·
Cc1ccc(Sc2cc(N3CCOCC3)nc(-c3ccccc3)n2)cc1	i	1	-1	-8	·	-2	-6	·
CCOc1ccccc1NC(=O)N1CCCC1C(=O)Nc1ccc(-n2cnnn2)c(C)c1 (centres undefined)	i	8	3	9	5	6	·	·
COc1ccc(NC(=O)c2ccc(N3C(=O)C4CC=C(Cl)CC4C3=O)cc2)cc1 (centres undefined)	i	6	5	38	-29	11	-18	8
Cc1cccc(-n2c(Cn3nc(C)c([N+](=O)[O-])c3C)n[nH]c2=S)c1	i	1	4	9	·	-9	-14	·
CC(=O)N(O)CCCCCNC(=O)CCC(=O)N(O)CCCCCNC(=O)CCC(=O)N(O)CCCCCNC(=O)CCC(=O)O	·	3	1	·	-14	·	·	-67
CC(C)C(=O)N1CCN(C2=NS(=O)(=O)c3ccccc32)CC1	·	-4	0	-4	5	-6	10	-26
Cc1cc(C)n(S(=O)(=O)c2ccc(C)c(C)c2C)n1	i	0	-1	-8	-17	-4	-14	-20
COc1ccc(NC(=O)C(c2ccccc2)N(C)C(=O)c2ccc(=O)[nH]c2)cc1 (centres undefined)	i	0	4	9	14	-3	2	-5

Of the compounds above, 2 have a COOH group:
SMILES	Rce1 inh	MT1-MMP act inh	MT1-MMP act inh RFP	eIF4H inh	Yeast UUG start	PABP FP inh	CSC inhib	HIV Env fusion	others
COCCn1c(C)cc(C(=O)Cn2nc(C(=O)O)c3ccccc3c2=O)c1C	i	0	5	-1	·	-12	-13	-68
CC(=O)N(O)CCCCCNC(=O)CCC(=O)N(O)CCCCCNC(=O)CCC(=O)N(O)CCCCCNC(=O)CCC(=O)O	·	3	1	·	-14	·	·	-67

Remaining list, next part:
SMILES	Rce1 inh	MT1-MMP act inh	MT1-MMP act inh RFP	eIF4H inh	Yeast UUG start	PABP FP inh	CSC inhib	HIV Env fusion	others
COC(=O)/C(=C\Nc1ccccc1)NC(=O)c1ccc(Cl)cc1Cl	i	2	-1	1	1	-2	-7	·
COc1ccc(OC)c(N/C(N)=N/c2nc(C)cc(C)n2)c1	i	-3	-3	0	-11	5	0	-1
O=S(=O)(Nc1cc(F)ccc1F)c1cccc2nsnc12	i	-4	-2	4	-22	-10	-10	-6
O=C(Nc1ccc(F)cc1)NC1CCCCCCC1	i	-3	-1	-6	-4	1	2	-23
Cc1ccccc1N1CN(Cc2ccco2)CNC1=S	i	-1	3	-5	·	-7	-19	·
O=C1c2ccccc2C(=O)N1c1ccc(Cc2ccncc2)cc1	i	2	-17	31	-15	5	-8	28
N#C[C@]1(S(=O)(=O)c2ccccc2)C[C@@H]2ON=C(c3cccc(Br)c3)[C@@H]2C1	i	3	-28	2	-17	13	18	38
CC(C)(C)c1ccc(/C=C(\C#N)C(=O)NC2CC2)cc1	i	1	-2	·	-24	·	-6	3
Cc1cc(C)cc(NC(=O)Nc2cc(S(=O)(=O)N(C)C)ccc2C)c1	i	2	-9	-10	2	2	-11	16
CCCCc1nc2ccccc2c(NC(=O)CN2CCN(C)CC2)c1CCC	i	2	3	20	·	5	-14	·
O=C(NNC(=O)c1cccnc1)c1ccncc1	i	-2	-2	-4	·	5	-6	-1
CC(C)N(C(=O)N1CCN(c2ccnc3cc(Cl)ccc23)CC1)C(C)C	i	-5	-12	-2	0	-9	·	39
O=C(NCCCN1CCCC1=O)c1ccc(S(=O)(=O)Nc2cccc(C(F)(F)F)c2)cc1	i	-5	-11	·	-7	·	7	9
Cc1cc(C)c2cccc(N)c2n1	i	-15	-10	79	1	36	2	18	eIF4H inh retest=-4;PABP FP inh retest=14
Cc1ccc(NC(=O)C2CC(=O)n3c(nc4ccccc43)N2)cc1C (centres undefined)	i	0	-4	-2	-18	5	-3	-4

Among those listed so far, 2 have a tert-butyl group.
SMILES	Rce1 inh	MT1-MMP act inh	MT1-MMP act inh RFP	eIF4H inh	Yeast UUG start	PABP FP inh	CSC inhib	HIV Env fusion	others
CC(C)(C)OC(=O)N1C[C@H](O)C[C@H]1C(=O)OCC(=O)c1ccc([N+](=O)[O-])cc1	i	-2	4	·	11	·	-17	0
CC(C)(C)c1ccc(/C=C(\C#N)C(=O)NC2CC2)cc1	i	1	-2	·	-24	·	-6	3

Next part.
SMILES	Rce1 inh	MT1-MMP act inh	MT1-MMP act inh RFP	eIF4H inh	Yeast UUG start	PABP FP inh	CSC inhib	HIV Env fusion	others
CCOC(=O)c1ccc(NC(=O)CSc2nc3c(c(=O)n2C)SC(C)C3)cc1 (centres undefined)	i	-13	-24	-7	26	1	4	27
CC(C)NC(=O)c1ccccc1-c1nc(-c2ccccc2Cl)no1	i	0	-1	2	1	-2	-17	·
COc1cc(NC(=O)CCCNC(=O)c2ccc(Cl)cc2)cc(OC)c1	i	4	6	-6	-10	3	-9	14
COCCNC(=O)C(=O)NCC1OCCCN1S(=O)(=O)c1cccs1 (centres undefined)	i	1	0	3	·	24	44	-11
CCc1nnc2c(N(C)C)nc3ccccc3n12	i	-11	-3	-7	·	-4	-5	-10
CC1c2cc3c(cc2CCN1S(=O)(=O)c1ccccc1)OCCCO3 (centres undefined)	i	3	-2	-2	-3	-2	4	0
COC(=O)c1sc(S(=O)(=O)Oc2ccccc2NC(C)=O)c(C(=O)OC)c1C	·	0	1	·	-16	·	·	-5
Cc1nn(-c2ccccc2)c(C)c1-c1cc(C(=O)N/N=C/c2ccc(O)cc2)[nH]n1	i	8	1	-1	·	-40	75*	-16
CC(C)(C)OC(=O)NCCCC[C@H](NC(=O)c1[nH]cnc1C(=O)N[C@@H](Cc1ccccc1)C(=O)OCc1ccccc1)C(=O)OC(C)(C)C	·	8	4	·	-21	·	·	17
CC1=C(C(=O)Nc2ccccn2)C(c2ccc(Br)cc2)NC(=S)N1 (centres undefined)	i	0	2	-2	·	2	-3	6
O=C(N[C@@H]1c2ccccc2CC[C@@H]1OCc1ccccc1)c1ccc(C(F)(F)F)cc1	·	1	-1	·	8	·	·	3
Cc1cc(N(C)NC(=S)Nc2ccccc2)nc(C)n1	i	4	3	3	·	12	-16	·
COc1cc(/C=N\NC(=O)C2C(=O)NCC2c2ccccc2)cc(OC)c1O (centres undefined)	i	-1	5	-1	-14	14	3	·
CCC(=O)Nc1nc2ccccc2n1CCN(C)C	i	3	4	-1	-12	2	4	-50
